Screening data deposited in PubChem BioAssay by PCMD.
Biofilm kill mix – mixtures killing C. albicans biofilm. C. albicans biofilm persisters + clotrimazole, fluorescence viability; primary screen in compound mixtures of four per well. inhibition, % at 7.6 µM. actives 0.02% (n = 120,000);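 active = inhibition above 30.3% in the primary screen of four-compound pools, then above 30% when the compound was retested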;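 also: compounds exposed to preformed 24 h biofilms for 48 h; the number belongs to the whole pool; some results filed as inactive read as strong as hits; inactives centre near 12; 0% = biofilm with clotrimazole alone and 100% = kill control; retested singly at about 60 µM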
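Incubation: 24 h biofilm formation, then 48 h compound exposure, 37 °C | Material: C. albicans biofilms | Buffer or medium: RPMI/MOPS medium, pH 7.0 | Measured by: 2-h Alamar Blue fluorescence, 535/590 nm excitation/emission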
Numbers without * were called inactive.

SMILES	Biofilm kill mix
COC(=O)c1ccccc1NC(=S)NC(=O)c1ccc2ccccc2c1	3
Cc1ccc(/C=N/Nc2nnc(Cl)c3ccccc23)cc1	12
CCOC(=O)c1ccc(N2Cc3ccccc3C2=NC(=O)c2cccs2)cc1	16
C(=N\N1CCOCC1)/c1nc(-c2ccccc2)n2ccccc12	14
C/C(CCC1CC(C)OC1=O)=N/Nc1nc(-c2ccccc2)cs1 (configuration not stated)	12
O=C(Nc1cccc(NC(=O)c2cccs2)c1)c1ccc2c(c1)OCCO2	-17
CCCC(=O)Nc1cc(-c2nc3ncccc3o2)ccc1C	11
Cc1ccc(NC(=S)N2CCN(C(=O)C3CCCO3)CC2)cc1 (configuration not stated)	22
O=C(C[n+]1ccccc1)c1ccc(-c2ccccc2)cc1	11
O=C(NC12CC3CC(CC(C3)C1)C2)C1CC(=O)N(c2ccccc2)C1 (configuration not stated)	2
C#CCn1c(=NC(=O)c2ccc(S(=O)(=O)N3CCCc4ccccc43)cc2)sc2cc(S(N)(=O)=O)ccc21	18
Nc1c(Cl)cc(S(N)(=O)=O)cc1S(N)(=O)=O	20
COc1cc(CN(C)Cc2cc(=O)n3ccsc3n2)ccc1OC(F)F	12
O=C(CCCN1CCC(O)(c2ccc(Cl)cc2)CC1)c1ccc(F)cc1	7
O=C(C1=C[C@H](C2CCCCC2)C[C@H](OCCCCO)O1)N1CCN(Cc2ccc3c(c2)OCO3)CC1	19
COc1cc(/C=N/NC(=O)C2CCN(CC(O)COCc3ccccc3)CC2)ccc1O (configuration not stated)	-1
COc1cccc(N(C(=O)CS(=O)CC(=O)Nc2ccc(F)cc2)C(C(=O)NC2CCCCC2)c2cccs2)c1 (configuration not stated)	21
O=C(Nc1ccc(N2CCOCC2)cc1)C1CC(=O)N(c2ccccc2)C1 (configuration not stated)	4
COc1ccc(CCNC(=O)CN2C(=O)c3cccc4cccc(c34)C2=O)cc1OC	10
Cc1ccc(-c2nc(SCC(=O)Nc3ccccc3OC(F)F)c3c(C)c(C(=O)O)sc3n2)cc1	1
Cc1ccc(C)c(N2CCN(C(=O)Cc3c(C(=O)O)[nH]c4ccc(Cl)cc34)CC2)c1	27
O=C(COc1ccccc1[N+](=O)[O-])N/N=C/c1ccc(OC(=O)c2ccco2)cc1	15
Cc1ccc2c(c1)c1c(n2CC(O)CNC2CCCCC2)CCCC1 (configuration not stated)	-4
COC(=O)[C@H](CC(C)C)NC(=O)N1CCCCC1	12
Cc1cc(C(=O)NC(=S)Nc2ccccc2N2CCOCC2)ccc1[N+](=O)[O-]	4
COCCNC(=O)/C(C#N)=C/c1cc(C)n(C2CCCCC2)c1C	9
COc1ccc(CNC(=O)C/C(C)=N/NC(=O)Cc2ccc(OC)c(OC)c2)cc1	21
O=C(NC1CCCCC1)N1CCc2ccccc2C1	19
CC(=O)O[C@H]1CC[C@@]2(C)C(CCC3C2CC[C@]2(C)OC(=O)CCC32)C1 (some centres not stated)	5
O=C(Cn1ncc(N2CCOCC2)c(Cl)c1=O)c1ccc(Cl)cc1	16
FC(F)(F)c1ccc(Cl)c(NC(=S)NC2CC2)c1	9
O=C(N/N=C/c1cc(Br)cc(Br)c1O)c1ccncc1	29
COC(=O)c1ccc(CN2CCN(C3CCCC3)C(CCO)C2)cc1 (configuration not stated)	10
Cc1c(NC(=O)OCCNC(=O)COc2ccc(Cl)cc2Cl)sc(=S)n1C	10
C=CCOc1ccc(C2NC(=S)NC(C)=C2C(=O)c2ccccc2)cc1OC (configuration not stated)	8
Cc1cc(Oc2ccc(N)cn2)ccc1Cl	16
Cc1cc(N2CCN(C)CC2)nc2ccc(NC(=O)CCC(=O)NCCC(C)C)cc12	6
Cc1ccc(O)c(C=Nc2ccc3[nH]ncc3c2)c1	11
Cc1ncoc1C(=O)N1CCCC(C(=O)c2cccc(OC(C)C)c2)C1 (configuration not stated)	0
CSc1ccccc1NC(=S)Nc1ccc(S(N)(=O)=O)cc1	13
O=C(Nc1nccs1)c1cc(S(=O)(=O)N2CCOCC2)ccc1Cl	5
Cc1cccc(C)c1Nc1nnc(SCc2nc3ccccc3c(=O)[nH]2)s1	15
COC(=O)[C@@H]1C[C@@]2(O)[C@H](O)[C@H](O)[C@H](O)C[C@H]2N1CC1CC1	18
Nc1nc(SCC(=O)Nc2ccc(Oc3ccccc3)cc2)n[nH]1	11
O=c1[nH]c2ccccc2c(O)c1-[n+]1ccccc1	20
COCCN(Cc1cc2ccc(C)c(C)c2nc1Cl)C(=O)N1CCOCC1	3
O=C(NC(=S)Nc1ccc(S(=O)(=O)Nc2nccs2)cc1)c1ccc(F)cc1	21
CCOc1ccccc1NC(=O)c1cc(SC)ccc1Cl	12
C/C(N)=C(/C#N)C(=O)COC(=O)c1cc(-c2ccc(Br)cc2)nc2ccccc12	10
CCCCc1ccc(NC(=S)NCCN2CCOCC2)cc1	15
Cc1ccc2sc(C)[n+](CCO)c2c1	15
Nc1nc(SCC(=O)N2CCCCC2)[nH]c(=O)c1NC(=O)c1cccs1	11
CCC(=O)Nc1cc(C(=O)O)ccc1S(=O)(=O)c1ccc(C)cc1	12
Cc1cccc(CN2C(=O)c3ccccc3Sc3ccc(C(=O)NCCN4CCOCC4)cc32)c1	3
CCC(C)c1ccc(NC(=S)Nc2ccc(OC)cc2)cc1 (configuration not stated)	23
Cc1cc(CN(C)C(=O)CC2C(=O)NCCN2Cc2ccc(F)c(F)c2)on1 (configuration not stated)	1
O=C(NCCOc1ccccc1-c1ccccc1)c1ccco1	21
C=CCNC(=S)NNC(=O)CC12CC3CC(CC(C3)C1)C2	34
CC[C@H](C)[C@@H](C(=O)N1CCNCC1)n1cc([C@@H](N)CO)nn1	15
CN(N)C(=S)Nc1ccc(Cl)cc1	12

The results go on.
SMILES	Biofilm kill mix
CC(=O)C1=C(O)C(=O)N(Cc2cccnc2)C1c1ccc(O)cc1 (configuration not stated)	0
Nc1nn(-c2ccccc2)c(N)c1N=Nc1ccccc1F	15
COc1ccc(/C=N/Nc2nnc(Cc3ccccc3)c(=O)[nH]2)cc1	6
COc1ccc(/C=C/C=C2\N=C(SC)SC2=O)cc1	10
COc1cccc(OCC(=O)NNC(=O)CCc2ccccc2)c1	-2
Cc1ccc(C)c(N2CCN(C(=O)c3ccc(CSc4nc5ccncc5[nH]4)cc3)CC2)c1	7
CCOc1cccc2c1OC1(CCCCC1)N1N=C(c3cccnc3)CC21 (configuration not stated)	3
O=C(O)CCCN1C(=O)C2C3CCC(O3)C2C1=O (configuration not stated)	18
O=C(c1ccncc1)N(c1ccc2oc3c(c2c1)CCCC3)S(=O)(=O)c1cccc([N+](=O)[O-])c1	12
COc1ccc([N+](=O)[O-])cc1N(CC(O)CN1CCCC1)S(=O)(=O)c1ccc(C)cc1 (configuration not stated)	14
Cc1nc(SCC(=O)NC(=O)NCCC(C)C)c2c(-c3cccs3)csc2n1	12
O=C(/C=C\c1ccc2c(c1)OCO2)Nc1c2c(nn1-c1ccc(Cl)cc1)CSC2	6
Cc1cc(C)cc(NC(=O)C(=S)NCc2ccccc2)c1	9
O=C(NC(=S)Nc1ccc(NC(=O)c2cccs2)cc1)c1ccc([N+](=O)[O-])cc1	-4
O=C(O)C1CCN(C(=O)CCc2ccccc2)CC1	17
CCCCN(C)CCCNC(=O)/C=C1\Sc2ccccc2NC1=O	7
CCNc1nc(NCC)nc(N/N=C/c2ccc(Br)cc2)n1	7
O=C(OCC(=O)c1c[nH]c2ccccc12)c1cccc(S(=O)(=O)N2CCCCCC2)c1	6
Cc1cc(C)c2c(=O)n(CC(=O)Nc3ccc(Br)c(C)c3)sc2n1	21
CCn1ccnc1CN(C)Cc1cn[nH]c1-c1ccc(OC)c(F)c1	14
Cc1cc(N2CCC(C)CC2)nc(SCC(=O)c2ccccc2)n1	9
O=C(NO)c1ccccc1O	8
CC(C)(C)C(=O)Nc1ccc(N=Nc2ccccc2)cc1	16
COC(=O)c1c(NC(=O)CN2CCC3(O)CCCCC3C2c2ccc(F)cc2)sc(C)c1C (configuration not stated)	15
O=C(O)CCN1C(=O)S/C(=C\c2cccnc2)C1=O	12
Cc1nc(-c2cccs2)sc1C(=O)O	11
O=C(NCc1ccco1)C1CCCN1C(=O)Nc1ccccc1 (configuration not stated)	9
COc1ccccc1N1C(=O)c2ccccc2NC1C(OC)OC (configuration not stated)	-11
CN(C)CCCN(Cc1ccccc1)C(=S)Nc1cccc(C(F)(F)F)c1	15
COc1ccc(NC(=O)CSc2nnc(-c3ccccc3F)n2C2CC2)cc1S(N)(=O)=O	8
CCN(CC)CCSc1nc(O)c(-c2ccccc2)c(=O)n1-c1ccccc1	9
CN(C(=O)CN(c1ccccc1)S(=O)(=O)c1ccc(F)cc1)C1CCS(=O)(=O)C1 (configuration not stated)	18
O=C(O)COCC(=O)NC1CCN(Cc2ccccc2)CC1	3
COc1ccc(NC(=O)/C=C/c2c(Cl)nc3ccccn23)cc1	11
COc1ccc(CNC(=O)c2c(C)oc3c2C(=O)c2ccccc2C3=O)cc1	15
CC(C)(C)[C@H]1C=C(C(N)=O)O[C@@H](OCCCCO)C1	13
CCOC(=O)c1c(CN2CCN(CCO)CC2)n(-c2ccccc2)c2cc(Br)c(O)cc12	13
C/C(=N\Nc1ccccn1)c1ccc(OC(F)F)cc1	12
COCCCNCCCCOc1cccc(Br)c1	1
CCNc1c(C(=O)O)ccc2c1C(=O)c1ccccc1C2=O	14
COCCN1C(=O)N[C@@H](c2ccccc2)C(C(=O)OC)=C1C	-4
O=C(NNS(=O)(=O)c1ccc(F)cc1)c1cnccn1	9
C/C(N)=C(/C#N)C(=O)CSc1cc(Cl)ccc1Cl	8
O=C(NCCc1ccccc1)C(=O)Nc1ccc([N+](=O)[O-])cc1	5
CCOC(=O)c1ccc(NC(=O)CN2C(=O)C(CC)SC(CC)C2=O)cc1 (configuration not stated)	5
COc1cc([N+](=O)[O-])ccc1NC(=O)C[n+]1ccccc1	9
O=C(O)c1ccccc1C(=O)NCCc1ccc(Cl)cc1	23
CC(OC(=O)c1cccnc1Cl)C(=O)Nc1ccc2c(c1)OCCO2 (configuration not stated)	8
COc1ccc(/C(C)=N/N=C(\C)c2ccc(OC)cc2OC)c(OC)c1	7
COc1ccc(C(=O)Nc2cc(=O)[nH]c3ncnn23)cc1	13
CCOC(=O)C(C)Sc1nc(-c2ccccc2)nc2ccccc12 (configuration not stated)	17
Cc1cc(NS(=O)(=O)c2ccc(NC(=S)NC(=O)c3ccc(F)cc3)cc2)no1	16
COc1ccc(N2C(=O)CNC2=S)cc1	27
CCC(=O)NCC(c1ccco1)N1CCN(c2ccc(OC)cc2)CC1 (configuration not stated)	13
Cc1ccc(C)c(N(C(=O)CS(=O)CC(=O)Nc2ccc3c(c2)OCO3)C(C)C(=O)NC2CCCC2)c1 (configuration not stated)	13
CS(=O)(=O)N(Cc1ccc(C(=O)NC2CCCC2)cc1)c1ccccc1	12
O=C(/C=C\c1cn(-c2ccccc2)nc1-c1ccc2c(c1)OCCO2)N1CCOCC1	16
O=C1CC(c2ccccc2Br)c2cc3c(cc2N1)CCC3 (configuration not stated)	-9
COC(=O)c1ccc(Nc2cc(C)nc3nc(C)nn23)cc1	11
CCNc1nc(SCC(=O)OC)nc(N(C)C)n1	8
Cc1ccc(CNC(=O)c2ccc3c(c2)NC(=O)C(N2CCOCC2)S3)cc1 (configuration not stated)	35
COc1ccc(N/C=C/C(=O)C(C)(C)C)cc1	12

Only part of the results is shown, so the mix of outcomes need not match the whole.
